Screening results (PubChem BioAssay)
H5N1 antiviral – MDCK cell protection from H5N1 avian flu. cytopathic effect, luminescence, 72 h; hits give high values; no value below 0 was filed and about half of the inactive calls have no number; reference of the scale not given here. inhibition, % at 50 µM. 96,000 compounds, 0.07% hits. AID 740; in the data active = inhibition above about 25%
* hit, by the source's call; i = inactive. A portion of the library, so the mix of outcomes need not match the whole.

SMILES	H5N1 antiviral
Cc1nnc(SCC(=O)Nc2ccccc2N2CCOCC2)s1	i
Cc1ccc(C(OC(=O)c2ccco2)C(=O)NCc2cccs2)cc1 (stereo unspecified)	0.6
Cc1ccc(S(=O)(=O)N2CCCC(NC(=O)N3CCN(c4ccccc4)CC3)C2)cc1 (stereo unspecified)	i
COc1ccc(-n2cnnc2SCC(=O)NCc2cccs2)cc1	0.6
O=C(CC(c1ccc(F)cc1)c1ccco1)N1CCOCC1 (stereo unspecified)	0.2
CCCCC(C(=O)NC(=O)NCc1ccccc1)N1C(=O)c2ccccc2C1=O (stereo unspecified)	0.9
COc1ccccc1NC1=NCCS1	i
CC(C)(C)n1nnnc1CN1CCSCC1	i
Cc1ccc(OCc2ccc(C(=O)Nc3nc4ccccc4n3Cc3ccccc3)o2)c([N+](=O)[O-])c1	i
O=C(Nc1ccc(O)cc1)c1cc(S(=O)(=O)N2CCCC2)ccc1Cl	i
CCOC(=O)c1cccc(NC(=O)CSc2nc3ccccc3c(=O)n2CCOC)c1	i
C=CCSc1nnc2c(n1)OC=Nc1ccc(Br)cc1-2	0.6
N#Cc1nc(COc2cccc(Cl)c2)oc1NCc1ccco1	2.0
CCN1CCN(S(=O)(=O)c2ccc3[nH]c(=O)oc3c2)CC1	0.7
CCO/C=C/C(=O)N(C)CCC#N	i
CCOc1ccc(S(=O)(=O)N2CCN(c3ccccc3OC)CC2)c2cccnc12	1.2
Cc1oc(-c2ccccc2F)nc1CN1CCC(C(=O)NC2CCCCCCC2)CC1	i
O=C(COC(=O)c1cccnc1Cl)c1ccc(Cl)cc1Cl	i
CCOc1ccc(C2C=C(c3ccc(F)cc3)Nc3ncnn32)cc1 (stereo unspecified)	2.5
CS(=O)(=O)N(CC(=O)NCC1CCCO1)c1cc(Cl)ccc1Cl (stereo unspecified)	0.4
CN(C(=O)CSc1nnc(Cc2ccccc2F)n1N)C1CCS(=O)(=O)C1 (stereo unspecified)	i
NC(=O)C1CCN(C2OC(=O)c3ccccc32)CC1 (stereo unspecified)	0.9
CCc1ccc(N(C(=O)c2csnn2)C(C(=O)NC(C)(C)C)c2ccncc2)cc1 (stereo unspecified)	i
COCc1nnc(NC(=O)c2sc3ccccc3c2Cl)s1	0.7
CCOc1ccccc1NC(=O)NC1(C(=O)N2CCN3CCCC3C2)CCCCC1 (stereo unspecified)	0.7
CN(c1ccccc1C(=O)Nc1cccc(C(F)(F)F)c1)S(C)(=O)=O	0.3
COc1ccc2c(C)nc(Nc3nc(C)c(C)c(=O)[nH]3)nc2c1	i
COc1ccccc1N1CCN(C(=O)C2C3C=CC4(CN(Cc5ccccc5Cl)C(=O)C24)O3)CC1 (stereo unspecified)	i
CC(=O)c1ccc(NS(=O)(=O)c2cccc(C)c2)cc1	0.4
O=C(NC1CC1)C1CC(=O)N(C2CCCCC2)C1 (stereo unspecified)	1.0
CC(=O)N1CCN(c2ccc(NC(=O)c3ccc(C(C)(C)C)cc3)cc2)CC1	0.1
Cc1nnsc1NC(=O)OCc1ccc(C(F)(F)F)cc1	i
Cc1c(NC(=O)c2cnn3c2NC(c2ccccc2)CC3C(F)(F)F)c(=O)n(-c2ccccc2)n1C (stereo unspecified)	0.5
Cc1cccc(NC(=O)CC2C(=O)NCCN2C(=S)Nc2ccccc2)c1 (stereo unspecified)	1.3
Cc1ccc(S(=O)(=O)NC(C)C(c2cccs2)N2CCN(c3ccccc3)CC2)cc1 (stereo unspecified)	4.6
O=C(CCCCCN1C(=O)c2ccccc2C1=O)NCc1ccccn1	i
Cc1ccc(S(=O)(=O)NNC(=O)CCC(=O)Nc2ccccc2)cc1	0.1
Cc1ccc(C=NCc2ccncc2)c(O)c1	i
O=C(/C=C/c1ccccc1)NCCSCc1ccccc1Cl	i
COc1cc2c(C#N)c(N3CCN(C)CC3)nc(N)c2c(N)n1	0.1
CCOC(=O)C1=C(N)n2c(s/c(=C\c3ccco3)c2=O)=C(C(=O)OCC)C1c1ccco1 (stereo unspecified)	0.5
Cc1ccc2[nH]c3c(N4CCN(Cc5ccc6c(c5)OCO6)CC4)ncnc3c2c1	i
CCN(CC)CCNC(=O)c1ccc(Cl)c(S(=O)(=O)N2CCCCCC2)c1	i
COc1ccc(-c2c[n+]3c4n2CCCCC4=C(c2ccc(Br)cc2)C3)cc1	i
Cc1nn(CC(=O)NCCCN2CCOCC2)c(C)c1[N+](=O)[O-]	1.3
Cc1cc(/C=N/n2cnnc2)c(C)n1-c1ccc(OCc2ccc(F)cc2)cc1	i
CCOC(=O)Cn1nc(-c2ccc(Cl)cc2)ccc1=O	i
COC(=O)c1c(N=CN(C)C)c(C#N)c2n1CCCC2	1.0
COc1cc(OC)c(NC2c3ccccc3C(=O)N2c2cc(C)ccn2)cc1Cl (stereo unspecified)	0.1
Cn1c(=O)n(Cc2ccccc2)c2ccccc21	0.0

Already shown: entries from further up.
SMILES	H5N1 antiviral
N#Cc1nc(COc2cccc(Cl)c2)oc1NCc1ccco1	2.0
CCN1CCN(S(=O)(=O)c2ccc3[nH]c(=O)oc3c2)CC1	0.7
CCO/C=C/C(=O)N(C)CCC#N	i
CCOc1ccc(S(=O)(=O)N2CCN(c3ccccc3OC)CC2)c2cccnc12	1.2
Cc1oc(-c2ccccc2F)nc1CN1CCC(C(=O)NC2CCCCCCC2)CC1	i
O=C(COC(=O)c1cccnc1Cl)c1ccc(Cl)cc1Cl	i
CCOc1ccc(C2C=C(c3ccc(F)cc3)Nc3ncnn32)cc1 (stereo unspecified)	2.5
CS(=O)(=O)N(CC(=O)NCC1CCCO1)c1cc(Cl)ccc1Cl (stereo unspecified)	0.4
CN(C(=O)CSc1nnc(Cc2ccccc2F)n1N)C1CCS(=O)(=O)C1 (stereo unspecified)	i
NC(=O)C1CCN(C2OC(=O)c3ccccc32)CC1 (stereo unspecified)	0.9
CCc1ccc(N(C(=O)c2csnn2)C(C(=O)NC(C)(C)C)c2ccncc2)cc1 (stereo unspecified)	i
COCc1nnc(NC(=O)c2sc3ccccc3c2Cl)s1	0.7
CCOc1ccccc1NC(=O)NC1(C(=O)N2CCN3CCCC3C2)CCCCC1 (stereo unspecified)	0.7
CN(c1ccccc1C(=O)Nc1cccc(C(F)(F)F)c1)S(C)(=O)=O	0.3
COc1ccc2c(C)nc(Nc3nc(C)c(C)c(=O)[nH]3)nc2c1	i
COc1ccccc1N1CCN(C(=O)C2C3C=CC4(CN(Cc5ccccc5Cl)C(=O)C24)O3)CC1 (stereo unspecified)	i
CC(=O)c1ccc(NS(=O)(=O)c2cccc(C)c2)cc1	0.4

Going on with the list:
SMILES	H5N1 antiviral
Cc1cccc(NC(=S)NCC2CCCO2)c1 (stereo unspecified)	i
COc1ccc2c(c1)C(=O)N(c1ccccc1)C(=O)C2	i
N#CC1=C(N)OC2=C(C(=O)CCC2)C1c1ccncc1 (stereo unspecified)	i
CCCn1c(SCC(=O)Nc2cccc(NC(C)=O)c2)nnc1C(C)C	0.4
CCc1nnc(NC(=O)C2Cc3ccccc3C(=O)O2)s1 (stereo unspecified)	1.6
COc1cc(OC)c(-c2nn3c(-c4ccco4)nnc3s2)cc1OC	5.8
COc1ccccc1N(CC(=O)Nc1cccnc1)S(C)(=O)=O	2.0
CCOC(=O)/C(C(C)=O)=C1\OC(=O)c2ccccc21	i
CCSc1nc2c(c(=O)[nH]1)C(c1ccncc1)C(C(=O)OC(C)C)=C(C)N2 (stereo unspecified)	1.7
Cc1cc(C(=O)NCc2cccnc2)cs1	i

3 structures from above, ordered by number of heavy atoms, smallest number first:
SMILES	H5N1 antiviral
CCN1CCN(S(=O)(=O)c2ccc3[nH]c(=O)oc3c2)CC1	0.7
COc1cc2c(C#N)c(N3CCN(C)CC3)nc(N)c2c(N)n1	0.1
CCOc1ccccc1NC(=O)NC1(C(=O)N2CCN3CCCC3C2)CCCCC1 (stereo unspecified)	0.7

Going on with the list:
SMILES	H5N1 antiviral
Cc1nnc(-c2cnn(C)c2N)n1Cc1ccccc1	0.7
COc1ccc(Br)cc1C1N2CC3(C)CN1CC(C)(C2)C3=O (stereo unspecified)	i
O=C(NCCCN1CCCC1=O)c1cc(NS(=O)(=O)c2ccc(F)cc2)cc(NS(=O)(=O)c2ccc(F)cc2)c1	i
CCCn1nc2cc(C(=O)NCc3ccccc3OC)ccc2c1OCC	1.4
O=C(CSC1=NC(=O)C(c2ccccc2)C(=O)N1)Nc1cccc(Cl)c1 (stereo unspecified)	i
C/C(=N/O)c1cc(C(C)(C)C)c(O)c(C(C)(C)C)c1	i
CCC1CCc2c(sc3ncnc(N4CCOCC4)c23)C1 (stereo unspecified)	i
CN(C)S(=O)(=O)CC12CCC(CC1=O)C2(C)C (stereo unspecified)	i
Cc1cc(C(=O)Nc2cccnc2Cl)on1	i
COCCCNC(=O)c1c(N)n(-c2cccc(S(N)(=O)=O)c2)c2nc3ccccc3nc12	0.3
Cc1cc(=O)n(CC(C)C)c(O)c1C#N	i
O=C(Cn1cc2c(n1)CCCC2)Nc1cc(-c2cccc(Cl)c2)no1	i
CCOc1ccc(OCC)c(NC(=O)c2[nH]c(C)c(C(C)=O)c2C)c1	i
C[C@@H]1C[C@H](O)c2cc(Cl)ccc2N1	i
CCOC(=O)C(O)(c1cn(C)c2ccccc12)C(F)(F)F (stereo unspecified)	i
CCN1CCCC1CNC(=O)COc1cc(=O)n(C)c2ccccc12 (stereo unspecified)	0.0
CCOC(=O)c1sc(NC(=O)C(CC)OC(=O)C(CC(C)C)NC(=O)c2ccccc2)nc1C (stereo unspecified)	0.5
C/C=C(\C)CN1CCN(c2ccccc2)CC1	i
CCc1c(C)nc2ncnn2c1NCCc1ccc(OC)c(OC)c1	3.5
CCOC(=O)N1CCC(NC(=O)C(NC(=O)C2CCC(C)CC2)C(C)CC)CC1 (stereo unspecified)	i
O=C(COC(=O)CCC1CCCC1)Nc1ccc(Cl)cn1	i
COc1cc(C2N(c3ccc(F)cc3)C(=O)C3CCCN32)cc(OC)c1OC (stereo unspecified)	i
CC(C)CC(=O)Nc1sc2c(c1C#N)CC(C)(C)NC2(C)C	0.1
CC(C)(C)C1=Nn2c(nnc2-c2ccccc2F)SC1	2.1
Nc1ccc(C(=O)N/N=C2\CCCc3c2[nH]c2ccccc32)cc1	0.7
C=CCn1sc(N)c(C(=O)OCC)c1=S	i
Fc1ccccc1/C=N/n1cnnc1	i
Cc1ccc(NC(=O)COC(=O)CN2C(=O)COc3ccccc32)cc1	0.8
CCN(CC)c1ccc(C2CC(=O)Nc3cc(OC)c(OC)cc32)cc1 (stereo unspecified)	1.0
Cc1csc(SCC(=O)Nc2ccc(S(=O)(=O)N3CCCC3)cc2)n1	2.0
COc1ccc2nc(N3CCCCC3)c(C#N)cc2c1	0.9
CCOC(=O)c1ccc(Oc2nc(N(C)C)nc(N(C)C)n2)cc1	i
Cc1cc(C)n(-c2ccc(C(=O)OCC(=O)c3c(N)n(C)c(=O)n(C)c3=O)cc2)n1	i
CC(C)(C)NS(=O)(=O)c1ccc(N2C(=O)c3ccccc3C2=O)cc1	1.2
COc1ccc2nc(SCC(=O)O)nc(C)c2c1	i
COc1cccc(CNC(=O)C2CCN(S(=O)(=O)c3ccccc3)CC2)c1	i
CCc1ccccc1NC(=O)c1cccs1	2.2
COC(=O)Cc1c(C)c2ccc(OCC(=O)NCc3ccc4c(c3)OCO4)cc2oc1=O	0.1
O=C(Cn1c(=O)oc2ccccc21)Nc1nc(-c2ccccc2)cs1	0.8
O=S(=O)(NCC1CCCO1)c1cccc(S(=O)(=O)N2CCCC2)c1 (stereo unspecified)	0.4
COC(=O)C1C(=O)c2c([nH]c(C(=O)OCC3CCCO3)c2C)CC1C (stereo unspecified)	1.3
c1ccc(C2=Nn3c(nnc3-c3ccccn3)SC2)cc1	3.2
COCC(C)NCc1ccc(C)cc1C (stereo unspecified)	i
COCCNC(=O)C(c1ccc(C)o1)N(C(=O)c1snc(C(N)=O)c1N)c1cc(C)cc(C)c1 (stereo unspecified)	i
CCOC(=O)CC(=O)CSc1nc2ccccc2c(=O)n1-c1ccc(C(=O)N2CCOCC2)cc1	1.3
CC1=C(OC(=O)c2ccc(Br)cc2)C(C)(C)C(c2ccccc2)OC1=O (stereo unspecified)	i
CC(=O)c1ccc2c3c(ccc(O)c13)CC2	i
N#Cc1nc(-c2ccco2)oc1N1CCOCC1	1.4
Cc1ccccc1C(=O)NNc1ccc([N+](=O)[O-])cc1	1.0
CCC(=O)Nc1ccccc1C(=O)OCc1ccc(C(=O)c2ccccc2)cc1	i

Additional results follow.
SMILES	H5N1 antiviral
CC(C)COC(=O)n1ccc(C(=O)N2CCCCC2)n1	i
CCOC(=O)CC1=CC(=O)Nc2ccccc2N1	i
COC(=O)C(C)N(C#N)c1nc(C)cc(C)n1 (stereo unspecified)	i
COc1ccc2oc(C(=O)C3CC3)c(N)c2c1	1.0
Cc1ccc(OCC(=O)OCc2c(C)noc2C)cc1C	i
CCN(CC)CCn1c(-c2ccccc2)nc(=S)c2c1CC(C)(C)OC2	0.9
Cc1cc(N2C(=O)C3C4c5ccccc5C(c5ccccc54)C3C2=O)no1 (stereo unspecified)	0.6
COc1cccc(-c2nc(CS(=O)(=O)CC(=O)N3CCc4ccccc43)c(C)o2)c1	i
O=C(NCNC(=O)c1ccccc1)c1ccccc1	i
COc1cccc(OC(=O)CSc2nnc(-c3ccccc3Br)o2)c1	i
COc1ccc(OC)c(C(c2nnnn2CCC(C)C)N2CCN(C(=O)c3ccco3)CC2)c1 (stereo unspecified)	1.5
O=C(CSc1nnc(C23CC4CC(CC(C4)C2)C3)o1)Nc1ccc(N2CCOCC2)c(Cl)c1	3.5
Cc1nonc1NC(=O)N1CCCC1	0.7
O=C(CS(=O)(=O)Cc1ccccc1)Nc1ccc(S(=O)(=O)N2CCCCCC2)cc1	3.2
Cc1ccccc1-n1cnc2cc(NCc3cccs3)ccc21	i
Cc1cccc(NC(=O)c2oc3ccc(S(=O)(=O)N4CCOCC4)cc3c2C)c1C	i
COc1ccc(C(C(=O)NC2CCCCC2)N(C(=O)c2sc(C)nc2C)c2ccc(OC)cc2)cc1 (stereo unspecified)	2.5
CCS(=O)(=O)N1CCC(NC(C)=O)(c2ccccc2)CC1	i
O=S(=O)(c1ccc(Cl)cc1)N1CCN(C2CCCCCC2)CC1	1.1
O=C(OC1CCOC1=O)c1ccc2ccccc2n1 (stereo unspecified)	i
Cn1cnnc1SCC(=O)N1CCc2ccccc21	0.2
CC(=O)Nc1cccc(NC(=O)c2c(-c3c(Cl)cccc3Cl)noc2C)c1	2.0
COCC(=O)Nc1ccc(Br)cc1	i
